NS1 function inh: inhibitors of influenza NS1 protein function; S. cerevisiae slowed by influenza A NS1, growth recovery by OD600; Potency, µM (titrated, usually from 46.1 µM), for inactives: at the top dose activity, positive = more growth; actives 0.4% (n = 270,000); AID 2326; also: actives are rising curves; nearly all actives have a fitted effect of over 50% in size
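Recovery from NS1-induced slow growth read by OD600 in budding yeast switched to galactose assay medium (pH 6.0, -URA) at 1:100 dilution. Compound 23 nl per well; the matching strain lacking NS1 serves as control.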
Cruzain inh Det: blocks cruzain activity in presence of Triton detergent; Potency, µM, for inactives: max response, negative = inhibition, most hits filed as inhibitors; purified cruzain, Z-FR-AMC fluorescence, 0.01% Triton; actives 0.43% (n = 200,000); active = well fitted curve in the direction sought with a large enough effect; inconclusive = small, poorly fitted or top-dose-only effect, or another doubt; inactive = no such curve, though single readings can be large; an effect the other way counts as inactive or inconclusive;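 also: plate controls were neutral wells for no effect and buffer without enzyme for full effect; nearly all actives have a fitted effect of over 40% in size; top concentration of the series not given in the record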
Target sequence (P25779 123-467 limits assumed): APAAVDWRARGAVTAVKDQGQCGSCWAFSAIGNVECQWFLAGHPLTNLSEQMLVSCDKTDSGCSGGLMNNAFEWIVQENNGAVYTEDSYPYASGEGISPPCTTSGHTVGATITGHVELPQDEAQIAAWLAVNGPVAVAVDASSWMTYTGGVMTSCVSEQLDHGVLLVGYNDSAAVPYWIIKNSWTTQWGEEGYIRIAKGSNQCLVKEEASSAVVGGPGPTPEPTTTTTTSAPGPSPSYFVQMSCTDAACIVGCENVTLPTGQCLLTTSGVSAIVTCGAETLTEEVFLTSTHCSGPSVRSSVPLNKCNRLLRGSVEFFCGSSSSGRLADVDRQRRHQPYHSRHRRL
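Read-out: AMC fluorescence (360 nm excitation, 450 nm emission), four reads over 2 min, first-to-third difference used. Conditions: cruzain 1.5 nM, Z-FR-AMC 2 uM, pH 5.5 acetate, 5 mM DTT, 0.01% Triton X-100.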
SARS PLpro yeast: inhibitors of SARS-CoV papain-like protease in yeast; S. cerevisiae expressing SARS-CoV PLpro, growth rescue; control for the full effect not named in the record; Potency, µM (highest dose often 32.9 µM), for the others: at the highest dose activity, positive = growth rescue; actives 0.19% (n = 330,000); AID 485353; also: 0% is about no effect; nearly all actives have a fitted effect of over 55% in size; growth read by luminescence after 48 h
MARV entry inh: blocks Marburg virus binding to or entry into cells. Marburg virus pseudotyped entry inhibition, cell reporter; control for the full effect not named in the record; about a third of the inactives were read at about 46 µM. Potency, µM (series often up to 37.8 µM), for the others: at the highest dose activity change, negative = inhibition, usual class: inhibitors. actives 1.8% (n = 300,000). AID 540276; active = well fitted inhibition curve with a large enough effect; inconclusive = small, poorly fitted or top-dose-only effect, or effect the other way; inactive = flat fitted curve, though single readings scatter; tested in HEK293 cells; about a fifth of its hits are not listed in these tables; also: % is scaled to controls: 0 for no effect and ±100 for the full control effect; luciferase read-out
StopGo reporter: FMDV 2A StopGo reporter, luciferase signal | human cells with a luciferase reporter of 2A StopGo recoding; control for the full effect not named in the record | Potency, µM (titrated, usually from 57.9 µM), without a hit: top-dose signal change, negative = less light | actives 1.2% (n = 410,000); active = well fitted falling curve with a large enough effect; inconclusive = small, poorly fitted or top-dose-only effect; inactive = no such curve, though single readings can be large or run the other way; tested in HEK293T cells; also: % is scaled to controls: 0 for no effect and ±100 for the full control effect; nearly all actives have a fitted effect of over 45% in size; luciferase light after 4 h
RE007 growth inh: less growth of the S. pombe RE007 Vpr strain. S. pombe RE007 Vpr strain, BacTiter-Glo ATP luminescence, 24 h; control for the full effect not named in the record. actives 0.21% (n = 360,000). Potency, µM (highest dose often 92.2 µM), for inactives: at the top dose activity change, negative = less growth. AID 651644; active = well fitted falling curve with a large enough effect; inconclusive = small, poorly fitted or top-dose-only effect; inactive = no such curve, though single readings can be large or run the other way;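 also: % is scaled to controls: 0 for no effect and ±100 for the full control effect; nearly all actives have a fitted effect of over 50% in size; the assay follows cell death caused by Vpr and the record does not say whether a fall means rescue or toxicity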
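Fission yeast RE007 carrying one integrated HIV-1 vpr copy, seeded at OD 0.01 in PMG+AL medium with 23 nL pinned compound. Grown 24 h at 30 degrees; viability read by BacTiter-Glo luminescence after 5 min.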
LASV entry inh: Lassa virus entry inhibition; Lassa virus pseudotype entry inhibition, cell reporter; control for the full effect not named in the record; Potency, µM (series often up to 37.9 µM), for the others: at the top dose activity change, negative = inhibition, usual class: inhibitors; actives 1.2% (n = 300,000); active means well fitted inhibition curve with a large enough effect; inconclusive means small, poorly fitted or top-dose-only effect, or effect the other way; inactive means flat fitted curve, though single readings scatter; tested in HEK293 cells; also: % is scaled to controls: 0 for no effect and ±100 for the full control effect; nearly all actives have a fitted effect of over 50% in size; luciferase read-out
Cruzain noTriton: cruzain (T. cruzi) inhibition without detergent; Potency, µM, for inactives: max response, negative = inhibition, most hits filed as inhibitors; actives 2.3% (n = 200,000); P25779; purified cruzain, Z-FR-AMC fluorescence, no detergent; active = well fitted curve in the direction sought with a large enough effect; inconclusive = small, poorly fitted or top-dose-only effect, or another doubt; inactive = no such curve, though single readings can be large; an effect the other way counts as inactive or inconclusive;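 also: plate controls were enzyme without inhibitor for no effect and buffer without enzyme for full effect; nearly all actives have a fitted effect of over 40% in size; top concentration of the series not given in the record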
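Detergent-free condition (0.00005% Triton X-100) in acetate buffer pH 5.5 with DTT. 1.5 nM enzyme and compound were pre-mixed 15 min, then 2 uM Z-FR-AMC substrate added; reaction progress from fluorescence change between first and third reads (60 s).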
* marks the source's active call; other numbers are inactive results; ? = inconclusive; / = no result given; & = joins results of further samples; [ ] = remark or other dose. Unless noted, calls follow the shape of the dose curve; as a rule, active means well fitted rising curve with a large enough effect; inconclusive means small, poorly fitted or top-dose-only effect; inactive means no such curve, though single readings can be large or run the other way. Potency is read from the fitted curve at half-maximal effect. Hits appear at their usual frequency, and some 4.7% of all compounds hit somewhere here.

SMILES	NS1 function inh	Cruzain inh Det	SARS PLpro yeast	MARV entry inh	StopGo reporter	RE007 growth inh	LASV entry inh	Cruzain noTriton
O=C(/C=C/c1cccc(C(F)(F)F)c1)N1CCN(c2ccccn2)CC1	0%	/	-2%	?	2%	3%	?	/
COC(=O)Cc1ccc(NC(=O)c2ccc(NC(=O)c3ccco3)cc2)cc1	/	/	-1%	/	-14%	-9%	-2%	/
CCc1ccccc1Nc1nn2c(=O)c3ccc(C(=O)NC4CCCCC4)cc3nc2s1	/	-2.2%	/	/	-22%	/	24%[46.1 µM]	3%
CCn1c(-c2ccccc2Cl)nn(CC(=O)Nc2ccccc2C)c1=S	-1%	5.0%	-16%	-2%	-1%	3%	3%	9%
COc1ccc(C(=O)N2CCCC(C(=O)O)C2)c2ccccc12 (stereo unspecified)	4%	/	16%	3%[46.1 µM]	21%	4%	-12%[46.1 µM]	/
COc1ccc(CNC(=O)Cn2c(=O)c3cccn3c3cccnc32)cc1	/	-5.2%	/	/	1%	/	-1%[46.1 µM]	-16%
Cc1ccc(-n2ncc3c2CCCC3NC(=O)CCc2cnn(C)c2)cc1C (stereo unspecified)	12%	/	12%	-5%	-17%	8%	-22%	/
COCCNC(=O)CN(C(=O)Cn1nnc2ccccc21)c1cccc(C)c1C	-6%	/	0%	0%[46.1 µM]	-1%	6%	?	/
Cc1onc(-c2ccccc2Cl)c1C(=O)OCC(=O)N1CCCc2ccccc21	-11%	-6.3%	-6%	-24%	-27%	4%	-13%	-23%
Cc1ccc(C)c(OCC(=O)NNC(=O)c2ccc(NC(=O)C3CC3)cc2)c1	3%	/	-8%	/	1%	-6%	/	/
CC1=NN(c2ccc(C)c(C)c2)C(=O)/C1=C/c1ccc2c(c1)n(C)c(=O)n2C	10%	-3.8%	4%	20%	-23%	0%	12%	?
CC(=O)N1CCc2c(sc3nc(SCC(N)=O)n(-c4ccc(F)c(Cl)c4)c(=O)c23)C1	/	-4.1%	/	?	-1%	/	14%[46.1 µM]	?
O=C(c1ccc2nc3ccc(Cl)cc3c(=O)n2c1)N1CCC2(CC1)OCCO2	-5%	/	/	13%	16%	-13%	43%[14.3 µM]	/
O=c1oc(-c2ccccc2NS(=O)(=O)c2ccc3ccccc3c2)nc2ccccc12	23%	-6.6%	-7%	?	50%[activator]	0%	-26%	?
COc1ccc(C(=O)NCc2nnc(SCC(=O)Nc3cccc(C(F)(F)F)c3)o2)cc1OC	?	-0.8%	4%	-1%&8%	-6%	0%	-10%	22%
O=S1(=O)CCC(NC(=S)NCCNC(=S)NC2CCS(=O)(=O)C2)C1 (stereo unspecified)	5%	-3.5%	20%	22%	-13%	-8%	0%	8%
CCOC(=O)C(C)N1C(=O)S/C(=C\c2ccc(-c3ccccc3C(=O)O)o2)C1=O (stereo unspecified)	6%	/	0%	/	-6%	3%	/	/
CCN1C(=O)c2ccccc2Sc2ccc(C(=O)NCCC(C)C)cc21	2%	/	1%	?	15%	-4%	?	/
Clc1cc(Br)ccc1OCCn1ccnc1	-57%	-1.6%	2%	14%	-4%	-10%	1%	1%
NC(Cc1ccc2nsnc2c1)C(=O)O (stereo unspecified)	/	/	/	7%	27%	17%	5%	/
COc1ccccc1COC(=O)CN1C(=O)NC2(CCCCC2C)C1=O (stereo unspecified)	/	/	-3%	3%[46.1 µM]	-13%	-3%	0%	/
Cc1ccnc(NS(=O)(=O)c2ccc(NC(=O)C(C)(C)C)cc2)n1	2%	/	1%	/	-3%	-4%	/	/
O=C(CCS(=O)(=O)c1ccccc1)N1CCCc2ccccc21	2%	/	-4%	/	19%	-10%	/	/
CC(=O)Nc1ccc(CN2CCN(C3CCCC3)C(CCO)C2)cc1 (stereo unspecified)	-4%	/	1%	10%[46.1 µM]	-14%	23%	14%[46.1 µM]	/
N#Cc1ccccc1	/	1.9%	-2%	/	-22%	-6%	/	2%
CCOc1ccccc1CNC(=O)c1cc(-c2ccc(Cl)s2)nc2ccccc12	/	-4.2%	/	5%[46.1 µM]	-4%	/	-3%[46.1 µM]	-9%
Oc1[nH]c2ccccc2c1/C=N/c1nccs1	-17%	-1.9%	-19%	?	34%[activator]	0%	-3%	3%
COc1ccc(Cl)c2sc(N3CCN(C(C)=O)CC3)nc12	-10%	/	1%	/	6%	-3%	/	/
COc1ccc(C)cc1NC(=O)Cn1c(=O)nc(-c2ccccc2F)c2cc(Cl)ccc21	/	0.4%	/	/	4%	/	2%[46.1 µM]	12%
CCOc1ccc(NC(=O)CSc2ccc(-c3ccccn3)nn2)cc1	-3%	-0.2%	7.9µM*	-17%	3%	-5%	?	0%
CCCCOc1ccc(-c2c(C(=O)Nc3ccccc3)c(C)[nH]c(=S)c2C#N)cc1	/	/	15%	?	14%	1%	?	/
CSc1cccc(NC(=O)CN(C)S(=O)(=O)c2ccc(C)cc2)c1	-19%	-3.0%	-3%	?	?	-9%	-27%	-18%
Cc1cccc(CSc2ncc(Cl)c(C(=O)Nc3sc4c(c3C(N)=O)CCCC4)n2)c1	/	-2.0%	/	17%[46.1 µM]	-14%	/	1%[46.1 µM]	-5%
Cn1c(SCc2ccccn2)nnc1-c1ccncc1	1%	-1.3%	26%	16%	4%	13%	0%	8%
COc1ccc(C(=O)N/C(=C\c2ccc(OC)c(OC)c2)C(=O)N2CCCCC2)cc1	6%	/	-1%	23%[46.1 µM]	3%	11%	-22%	/
CC1SCC(NC(=O)c2ccccc2Cl)CS1 (stereo unspecified)	3%	/	-2%	?	9%	34%	-23%[46.1 µM]	/
COc1ccc(S(=O)(=O)N(C)c2ccc(C(=O)N3CCOCC3)cc2)cc1	-9%	3.4%	1%	-8%	-26%	-1%	-1%	9%
CCN1CCN(C(=O)c2cc3c(=O)oc4ccc(C)cc4c3s2)CC1	-8%	/	0%	/	-2%	-10%	/	/
O=C(Nn1cnc2ccccc2c1=O)c1ccccc1[N+](=O)[O-]	/	/	2%	4%[46.1 µM]	-5%	-4%	-16%	/
COc1ccccc1OCCSc1nc2ccc([N+](=O)[O-])cc2s1	-12%	-7.8%	-3%	23%	0%	-4%	11%	3%
COc1ccc(CCNC(=O)CCS(=O)(=O)c2cc3c(cc2Cl)NC(=O)CO3)cc1OC	/	-2.7%	/	/	-18%	/	23%[46.1 µM]	9%
O=C(NC(=O)c1ccccc1)Nc1ccccc1O	-47%	/	-7%	/	4%	-13%	/	/
COc1ccc(CCn2c(-c3cc([N+](=O)[O-])cc([N+](=O)[O-])c3)nc3nc4ccccc4nc32)cc1OC	-6%	-4.0%	6%	5%	-29%	14%	8%	7%
O=C1CCc2cc(S(=O)(=O)NCc3ccc(Cl)cc3)cc3c2N1CC3	/	0.3%	-2%	?	12%&-5%	-3%	-4%	2%
O=C(Oc1ccc2ccc(=O)oc2c1)c1ccc([N+](=O)[O-])cc1	-5%	/	2%	18%[46.1 µM]	-7%	-17%	29%[46.1 µM]	/
Cc1ccc(NC(=O)CCc2c[nH]c3ccccc23)nc1	-20%	/	-3%	?	4%	3%	?	/
O=S(=O)(O)c1cc(O)c2c(O)c(N=Nc3cc(Cl)ccc3O)c(S(=O)(=O)O)cc2c1	-4%	/	0%	?	13µM*	?	?	/
C=CCN(CC(=O)NCc1ccc(OC)cc1)C(=O)c1csnn1	1%	1.0%	8%	8%	28%	-7%	-4%	-3%
CC(C)(C)c1cc(C2=CSC3=NCCN23)cc(C(C)(C)C)c1O	15%	/	-2%	/	?	-17%	/	/
Cc1ccc(C(C(=O)NCC2CCCO2)N(C(=O)c2snc(C(N)=O)c2N)c2ccccc2)o1 (stereo unspecified)	3%	/	3%	-10%	1%	-10%	?	/

Next part:
SMILES	NS1 function inh	Cruzain inh Det	SARS PLpro yeast	MARV entry inh	StopGo reporter	RE007 growth inh	LASV entry inh	Cruzain noTriton
O=C(CCS(=O)(=O)c1ccccc1)Nc1ccc(S(=O)(=O)Nc2ncccn2)cc1	-7%	/	2%	20%[46.1 µM]	-5%	8%	6%[46.1 µM]	/
COCCCN(CCCN)Cc1ccco1	13%	4.9%	-4%	22%	-7%	-5%	14%	19%
Cc1cc(C)c2sc(N(CCCN(C)C)C(=O)COc3ccc(Cl)cc3)nc2c1	/	/	-9%	?	0%	1%	-28%	/
CCOC(=O)C1=C(Cn2cnc3ccccc32)NC(=O)NC1c1ccc(Cl)cc1 (stereo unspecified)	-9%	-5.6%	?	-35%	-28%	-13%	2%	-5%
CCOC(=O)C1=C(O)/C(=C\c2ccc(CNS(=O)(=O)c3ccc(Br)cc3)o2)N=C1C	5%	-9.5%	29%	-35%	-11%	/	?	13%
CSc1sc(-c2ccnc(SCC(=O)C(C)(C)C)n2)c2c1C(=O)CC(C)(C)C2	6%	/	-2%	/	-14%	14%	/	/
CC(C)(C)C1CCc2c(sc(NC(=O)Cn3nnc(-c4cccc(C(F)(F)F)c4)n3)c2C#N)C1 (stereo unspecified)	/	-2.5%	/	?	0%	/	21%[46.1 µM]	-17%
COc1ccc(CNC(=S)NCc2ccc(OC)cc2)cc1	2%	/	0%	-23%[46.1 µM]	24%	-6%	-25%[46.1 µM]	/
Oc1ccc(Cl)cc1C1=NNC(c2cccs2)C1 (stereo unspecified)	-71%	/	-5%	/	10%	-18%	/	/
Cc1cc2c(cc1C)N(CC(=O)N1CCCC1)C(=O)CC(c1ccccc1)=N2	-3%	-3.5%	7%	-4%	85%[activator]	11%	?	?
O=C(CN1CCC(O)(c2ccc(F)cc2)CC1)NCc1ccc(F)cc1	5%	1.6%	-2%	-27%	/	-6%	-16%	-7%
C=CCNC(=S)NNC(=O)c1cc(-c2cccnc2)nc2ccccc12	5%	/	-2%	/	28%	-9%	/	/
NC(=O)c1cc(N2C(=O)C=CC2=O)ccc1Cl	4%	2.0%	-11%	11%	12%	-4%	-13%[14.3 µM]	5%
S=C(NCc1ccccc1)N1CCn2cccc2C1c1cccnc1 (stereo unspecified)	/	/	0%	?	36%[activator]	-3%	?	/

Source: PubChem
